Compound activity (PubChem)
quorum sensing: Vibrio cholerae quorum sensing activators, luminescence (AID 686977); V. cholerae quorum sensing reporter, luminescence, 6 h; higher luminescence means a stronger effect; most inactives read 0; luminescence at 50 µM unless noted; hits with a dose series show EC50 in µM; 9,400 tested, under 10 active;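 active = light above mean plus 3 SD and confirmed in a dose series; inconclusive = above that limit without a clear retest; inactive = below it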;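 also: raw light counts without normalisation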
Active calls of the source: *; ? = inconclusive; [ ] = another dose, or the depositor's remark.

| smiles | quorum sensing |
| --- | --- |
| O=C1Nc2ccc(S(=O)(=O)N3CCOCC3)c3cccc1c23 | 320 |
| Fc1ccccc1N1CCN(CCCNc2ccc3nncn3n2)CC1 | 40 |
| Cc1ccc(C2N(c3ccc(F)cc3)C(=O)C3CCCN32)cc1 (stereo not drawn) | 0 |
| COc1cc(NC(=S)NC(C)=O)ccc1NC(=O)C(C)C | ? |
| CCCCCCCCCCNC(=O)C(=O)Nc1ccccn1 | 0 |
| c1cc(Nc2ncnc3sccc23)cc(-c2nnc3n2CCCCC3)c1 | 0 |
| Cc1ccc(C(=O)Nc2ccon2)cc1S(=O)(=O)N1CCCC1 | 0 |
| CN(C)c1oc(-c2ccccc2Cl)nc1S(=O)(=O)c1ccccc1 | 0 |
| Cn1nc([N+](=O)[O-])c2c(-c3nc4ccccc4s3)c(N)n(C3CCCCC3)c2c1=O | 0 |
| CC1(C)S[C@@H]2[C@H](NC(=O)[C@H](N)c3ccccc3)C(=O)N2[C@H]1C(=O)O | 0[10 µg/mL] |
| CN(C)C1(c2nnnn2-c2ccc(Cl)cc2)CCCCC1 | 40 |
| CCC(=O)OCC(=O)[C@@]1(OC(=O)CC)[C@@H](C)C[C@H]2[C@@H]3CCC4=CC(=O)C=C[C@]4(C)[C@@]3(Cl)[C@@H](O)C[C@@]21C | 0[10 µg/mL] |
| S=c1nc(-c2ccccc2)n(CCCn2ccnc2)c2c1CCCC2 | 0 |
| COc1ccc(OC)c(C2C(C(N)=O)=C(C)Nc3nc(CCCO)nn32)c1 (stereo not drawn) | 0 |
| CCOCCn1c(SCCc2ccccc2)nc2c1c(=O)[nH]c(=O)n2C | 0 |
| CCC(=O)N1CCN=C1SCc1ccc(Cl)cc1 | 0 |
| CCn1c(=O)c2cc(C(=O)N3CCOCC3)sc2c2ccccc21 | 0 |
| Cc1cc(NC(=O)CSc2ccc3nnc(-c4cccs4)n3n2)no1 | 40 |
| CCSc1nnc(NC(=O)C(CC)(C(F)(F)F)C(F)(F)F)s1 | 320 |
| Cc1ccc(S(=O)(=O)NC(=O)NN2CCCCCC2)cc1 | 0[10 µg/mL] |
| CC1(C)Oc2ccc(C(=O)NC3CCCC3)cc2N(CC(=O)NC2CCCC2)C1=O | 0 |
| COc1ccc(C2=Nn3c(nnc3-c3ccncc3)SC2)cc1OC | 0 |
| COc1ccc(NC2CC(=O)N(c3cccc(C)c3)C2=O)cc1 (stereo not drawn) | 0 |
| CCOC(=O)Cn1nnnc1CN(Cc1ccc(OC)cc1)Cc1cc2cc(CC)ccc2[nH]c1=O | 40 |
| CC1Cc2nc(SCC(=O)N3CCOCC3)n(-c3ccccc3)c(=O)c2S1 (stereo not drawn) | 0 |

Carrying on:
| smiles | quorum sensing |
| --- | --- |
| CCN(CC)CCOc1ccc(/C(=C(/Cl)c2ccccc2)c2ccccc2)cc1 | 40[10 µg/mL] |
| O=c1cc(/C=C/c2ccccc2)oc2ccccc12 | ? |
| CC(CNC1CCCCC1)OC(=O)c1ccccc1 (stereo not drawn) | 0[10 µg/mL] |
| CC(COc1ccccc1)N(CCCl)Cc1ccccc1 (stereo not drawn) | 40[10 µg/mL] |
| CCOC(=O)CSc1nnc(Cc2ccccc2)n1Cc1ccco1 | 0 |
| Cc1ccccc1C(=O)Nc1nc2n(n1)C(c1ccccc1)CC(=O)N2 (stereo not drawn) | 0 |
| Cn1c(SCC(=O)NC2CCCCC2)nnc1-c1cc2ccccc2o1 | 0 |
| Cc1ccc(-c2csc3ncnc(-n4nc(C)cc4N)c23)cc1 | 40 |
| NCCC(=O)NCCc1cnc[nH]1 | 0[10 µg/mL] |
| CCOc1ccc(C2CC(c3ccc(OC)cc3)n3ncnc3N2)cc1 (stereo not drawn) | 40 |
| CCCC(=O)Nc1ccc(NC(=O)c2ccco2)cn1 | 40 |
| COCCNC(=O)c1cn(C)c(=O)c2cc(OC)c(OC)cc12 | 0 |
| Cc1cc(C(C)(C)C)cc(C)c1CC1=NCCN1 | 0[10 µg/mL] |
| Cc1sc2ncnc(NCCCO)c2c1C | 0 |
| Cc1ccc(-n2nc(C)c3c(C)c(CCC(=O)NCc4ccco4)c(C)nc32)cc1 | 0 |
| Cc1ccc(S(=O)(=O)NCc2nc3ccccc3[nH]2)cc1 | 40 |
| CSc1ccc(S(=O)(=O)NC2CCCCCC2)cc1 | 0 |
| CO[C@H]1C=C2CCN(C)[C@H]2C2c3cc4c(cc3C(=O)O[C@@H]21)OCO4 (stereo partly drawn) | 0[10 µg/mL] |
| Cc1ccc(NC(=O)N(CCCN2CCOCC2)Cc2cccs2)cc1C | 0 |
| O/N=C/c1c[nH]c2ccccc12 | 0 |
| CCOC(=O)Cc1csc(NC(=O)c2ccc(S(=O)(=O)N3CCCCC3)cc2)n1 | 40 |
| C=CCNc1nc(N(c2ccccc2)c2ccccc2)nc(-n2ccnc2)n1 | 40 |
| CC(=O)c1c(NC(=O)C(C)C)nc(C)nc1-c1ccccc1 | 0 |
| C(=C\c1ccccc1)/CSc1nnc(-c2ccccn2)n1Cc1ccco1 | 0 |
| C/C(=N/OCC(=O)Nc1ccc(C)cc1C)c1cccs1 | 0 |

Brought forward from above: 6 compounds, followed by the next part.
| smiles | quorum sensing |
| --- | --- |
| O/N=C/c1c[nH]c2ccccc12 | 0 |
| CCOC(=O)Cc1csc(NC(=O)c2ccc(S(=O)(=O)N3CCCCC3)cc2)n1 | 40 |
| C=CCNc1nc(N(c2ccccc2)c2ccccc2)nc(-n2ccnc2)n1 | 40 |
| CC(=O)c1c(NC(=O)C(C)C)nc(C)nc1-c1ccccc1 | 0 |
| C(=C\c1ccccc1)/CSc1nnc(-c2ccccn2)n1Cc1ccco1 | 0 |
| C/C(=N/OCC(=O)Nc1ccc(C)cc1C)c1cccs1 | 0 |
| O=C(Cn1c(C(=O)N2CCN(C3CCCC3)CC2)cc2sccc21)c1ccccc1 | 0 |
| C=CCNc1ncnc2c1cnn2-c1ccc(Cl)cc1 | 40 |
| O=C(Cc1ccccc1)Nc1ccc(CN2CCOCC2)cc1 | 0 |
| Cn1c(=O)c2cc(S(=O)(=O)NC(Cc3ccccc3)C(=O)NCc3ccco3)ccc2n(C)c1=O (stereo not drawn) | 0 |
| CN(Cc1cccs1)c1ncnc2sccc12 | 0 |
| O=S(=O)(c1ccc(-c2nnc(SCc3nnc(-c4ccccc4)o3)o2)cc1)N1CCCC1 | 0 |
| Brc1ccc(C2C3=C(Nc4ncnn42)c2ccccc2OC3c2ccncc2)cc1 (stereo not drawn) | 0 |
| Cc1ccc(Cn2nnc3c(=O)n(Cc4ccccc4C)cnc32)cc1 | 0 |
| Cc1cccn2c(=O)c3cc(C(=O)NCCN4CCOCC4)c(=N)n(CCc4ccccc4)c3nc12 | 0 |
| COC(=O)c1nc2cc(C)ccn2c1F | 40 |
| CCN(CC)c1ncnc2sc(C(=O)N3CCN(c4ccc(OC)cc4)CC3)c(C)c12 | 160 |
| CCC1S/C(=C(\C#N)C(=O)NCc2ccco2)N(c2ccc(F)cc2)C1=O (stereo not drawn) | 0 |
| COc1ccc2c(c1OC)C(=O)OC2CC(=O)c1ccc2c(c1)OCO2 (stereo not drawn) | 0 |
| CC(C)Sc1nc2c(cnn2-c2ccc(F)cc2)c(=O)[nH]1 | 40 |
| O=C(NNc1ccc([N+](=O)[O-])cc1)C12CC3CC(CC(C3)C1)C2 | 0 |
| CN1C(=O)C(O)(CC(=O)c2ccccc2O)c2cc(Br)ccc21 (stereo not drawn) | 0 |
| O=C(O)C1C2C=CC(O2)C1C(=O)NCc1ccccc1Br (stereo not drawn) | 0 |
| CC(C)CC1(C)NC(=O)N(CC(=O)NC(=O)Nc2ccc3c(c2)OCCO3)C1=O (stereo not drawn) | 40 |
| Nn1c(SCC(=O)NC(=O)NCc2ccco2)nnc1-c1ccc(OC(F)F)cc1 | 0 |
| COc1ccc2c(C(=O)CN3CC(C)OC(C)C3)c[nH]c2c1 (stereo not drawn) | 40 |
| O=C(Nc1nnc(C23CC4CC(CC(C4)C2)C3)s1)c1ccc(N2C(=O)CCC2=O)cc1 | 40 |
| CN[C@H](CC(C)C)C(=O)N[C@H]1C(=O)N[C@@H](CC(N)=O)C(=O)N[C@H]2C(=O)N[C@H]3C(=O)N[C@H](C(=O)N[C@H](C(=O)O)c4cc(O)cc(O)c4-c4cc3ccc4O)[C@H](O)c3ccc(c(Cl)c3)Oc3cc2cc(c3O[C@@H]2OC(CO)[C@@H](O)[C@H](O)[C@H]2O[C@H]2C[C@](C)(N)[C@H](O)[C@H](C)O2)Oc2ccc(cc2Cl)[C@H]1O (stereo partly drawn) | 0[10 µg/mL] |
| CCCCOc1cccc(OCCCC)c1C(=O)Nc1cc(C)on1 | ? |
| CN(C)c1nc(-c2ccccn2)nnc1-c1ccccc1 | 0 |
| OC(CN1CCN(c2ccccc2)CC1)c1ccc2c(c1)CCN2 (stereo not drawn) | 40 |

(further entries)
| smiles | quorum sensing |
| --- | --- |
| Clc1ccc(C(OCCN2CCCCC2)c2ccccc2)cc1 (stereo not drawn) | 0[10 µg/mL] |
| COc1ccc2[nH]c3c(c2c1)CCN=C3C | 0[10 µg/mL] |
| O=C(Cn1c(=O)sc2ccccc21)NCc1ccccn1 | 0 |
| COC(=O)c1ccc(-c2nc(-c3cccs3)no2)cc1 | 0 |
| CC(=O)Nc1ccc2c(c1)CCC2=O | 0 |
| Cc1ccc(S(=O)(=O)n2ccc3cccnc32)cc1 | 0 |
| CCOC(=O)c1cc2c(nc1N)CC(C)(CC)OC2 (stereo not drawn) | 0 |
| OCc1cc(C(O)CNCCCCCCOCCCCc2ccccc2)ccc1O (stereo not drawn) | 80[10 µg/mL] |
| Cn1c([N+](=O)[O-])cnc1COC(N)=O | 0[10 µg/mL] |
| Cc1nc2c(-c3ccc(F)cc3)c(C)nn2c(C)c1CCC(=O)N1CCN(c2ccc(F)cc2)CC1 | ? |
| CCc1nnc(NC(=O)CSc2nc3c(c(=O)n2C)SC(C)C3)s1 (stereo not drawn) | ? |
| COCCCNC(=O)COc1cc(C)c(Cl)c(C)c1 | 0 |
| Cc1nc2ccccc2c2oc(C(=O)N3CCC(N4CCCCC4)CC3)cc12 | 0 |
| Cn1c(SCC(=O)Nc2ccc(F)cc2F)nnc1-c1cccnc1 | ? |
| CN(C)S(=O)(=O)c1ccc(S(=O)(=O)N2CCN(CCC#N)CC2)cc1 | 40 |
| Cc1ccc(S(=O)(=O)N2CCOCC2)cc1C(=O)NC1CCCCC1 | 0 |
| CC(C)(C)c1ccc(-c2cc(N)n[nH]2)cc1 | 40 |
| COc1ccc(NC(=O)Nc2ccccc2F)cc1 | 0 |
| CCn1c(CCCNC(=O)c2ccc(F)cc2)nc2ccccc21 | 40 |
| O=S(=O)(NCC1CCCO1)c1ccc(Br)s1 (stereo not drawn) | 40 |
| O=C(c1ccco1)N1CCN=C1SCc1cccc(F)c1 | 0 |
| CC1CCc2nn(CC(=O)N3CCc4ccccc43)cc2C1 (stereo not drawn) | 0 |
| CC1CCCCC1NC(=O)CSc1nncs1 (stereo not drawn) | 40 |
| O=C(NNC(=O)C1CCCO1)c1ccccc1Cl (stereo not drawn) | 0 |
| Cc1noc(NS(=O)(=O)c2ccc(NC(=O)CCn3c(=O)oc4ccccc43)cc2)c1C | 80 |

Pulled one by one from the entries so far (2):
| smiles | quorum sensing |
| --- | --- |
| CN(C)S(=O)(=O)c1ccc(S(=O)(=O)N2CCN(CCC#N)CC2)cc1 | 40 |
| CO[C@H]1C=C2CCN(C)[C@H]2C2c3cc4c(cc3C(=O)O[C@@H]21)OCO4 (stereo partly drawn) | 0[10 µg/mL] |

(more compounds)
| smiles | quorum sensing |
| --- | --- |
| COc1ccc(-c2cc3nc(C)c(CCC(=O)NC(C)CCc4ccco4)c(C)n3n2)c(OC)c1 (stereo not drawn) | 40 |
| Cc1cc(C2CCCCC2)n(O)c(=O)c1 | 0[10 µg/mL] |
| Cc1ccc(Cn2c(SCCN3CCOCC3)nc3c2c(=O)n(C)c(=O)n3C)cc1 | 0 |
| Cn1c(SCC(=O)Nc2ccccc2F)nnc1-c1cccnc1 | 0 |
| COc1cccc(C2c3c(oc4ccc(F)cc4c3=O)C(=O)N2CCN2CCOCC2)c1OC (stereo not drawn) | 0 |
| COC(=O)CSC1=C(C#N)C(=O)NC(c2ccccc2)S1 (stereo not drawn) | 0 |
| Cc1ccc(C2=NN(C(=S)Nc3ccccc3)C(c3ccco3)C2)cc1 (stereo not drawn) | 0 |
| O=C1NCN(c2ccccc2)C12CCN(CCCC(c1ccc(F)cc1)c1ccc(F)cc1)CC2 | 0[10 µg/mL] |
| CCOC(=O)C(C)Oc1cccc2c(=O)n(CC(=O)Nc3ccc(OCC)cc3)ccc12 (stereo not drawn) | 0 |
| Cc1ccc(NC(=O)c2cccc(OCc3c(C)noc3C)c2)cc1 | 360 |
| C=C(C)Cn1c(CNC(C)=O)nc2ccccc21 | 0 |
| COc1cc(OC)nc(NC(=O)CSc2nc3ccccc3o2)n1 | 0 |
| CCC/C(=N\O)c1c[nH]c2ccccc12 | 0 |
| CCCC(=O)Nc1nnc(-c2ccc(Cl)s2)o1 | 280 |
| O=C1CCc2cc(S(=O)(=O)N3CCC(C(=O)NCc4ccccc4Cl)CC3)ccc2N1 | 0 |
| Cc1ccc(CNC(=O)CS(=O)CC(=O)O)cc1 (stereo not drawn) | 40 |
| COc1cccc(C(O)c2cnc(C(C)C)n2C)c1OC (stereo not drawn) | 0 |
| COc1ccc(OC)c(NC(=O)CN(c2ccc(C(C)C)cc2)S(=O)(=O)c2c(C)noc2C)c1 | 0 |
| CC(C)(C)C(=O)N1CCCC1C(=O)O (stereo not drawn) | 0 |
| CCOC(=O)N1CCC(NC(=O)C(Cc2ccccc2)NC(=O)C2CCCCC2)CC1 (stereo not drawn) | 0 |
| CCCCNC(=O)Cn1c(=O)n(C)c2ccccc21 | 0 |
| CNC(=O)CN(c1cc(C)ccc1OC)S(=O)(=O)c1ccc(C)cc1 | 0 |
| Cc1cc2cc3c(C)cc(=O)oc3c(C)c2o1 | 0[10 µg/mL] |
| COc1ccc2c(c1)[nH]c1c(N3CCN(Cc4ccc5c(c4)OCO5)CC3)ncnc12 | 0 |
| CCCCn1c(N)c(N(CC(C)C)C(=O)CN(C)Cc2cccc(OC)c2)c(=O)[nH]c1=O | 0 |
| CCOC(=O)/C(C#N)=C/C1=C(N2CCCC2)CC(C)(CC)OC1 (stereo not drawn) | 40 |
| BrC(=C\c1ccccc1)/C=N/N1CCN(Cc2ccccc2)CC1 | 0 |

Not all compounds are listed, so the mix of outcomes need not match the whole.
